Source: PubChem BioAssay
Rce1 inh: yeast Ras-converting enzyme inhibition. Q03530. yeast membranes, quenched prenylated peptide cleavage fluorescence. calls only. 290,000 tested, 0.27% active. AID 2563;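 active = fall in fluorescence gain of 50% or more versus controls, with final raw signal at or below 3038400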;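 also: plate controls were neutral control wells for no effect and wells lacking membranes for full effect; tested at 10 µM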
Target sequence (Q03530 whole entry, looked up): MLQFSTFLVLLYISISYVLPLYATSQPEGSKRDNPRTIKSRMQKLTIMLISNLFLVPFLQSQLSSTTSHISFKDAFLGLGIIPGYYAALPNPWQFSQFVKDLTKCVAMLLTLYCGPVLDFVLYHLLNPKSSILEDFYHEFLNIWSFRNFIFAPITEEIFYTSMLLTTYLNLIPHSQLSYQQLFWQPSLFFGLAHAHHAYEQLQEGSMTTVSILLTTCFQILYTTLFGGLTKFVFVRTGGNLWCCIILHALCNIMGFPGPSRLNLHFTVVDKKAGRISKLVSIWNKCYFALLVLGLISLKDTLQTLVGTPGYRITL
MT1-MMP act inh: blocks activation of human MT1-MMP; GFP/RFP ratio change, % at 20 µM; HT1080 RFP-PRO-GFP cells, GFP/RFP ratio fluorescence, overnight; percent of plate control window, DMSO zero; 360,000 tested, 0.061% active; P50281;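 active = GFP/RFP ratio change of at least 30% with cell ATP level not reduced by more than half and red fluorescence within 50% of control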; also: strong numbers were not always called active
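Material: RFP-PRO-GFP reporter HT1080 cells. Dosing: single-point 20 µM compound, 1% DMSO. Controls: DMSO and RFP-L50D-GFP cell wells. Timing: cells overnight before dosing, compound overnight, 37 °C, 5% CO2. Measure: GFP/RFP fluorescence ratio.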
eIF4H FP inh: inhibitors of RNA binding by human eIF4H; eIF4H fluorescence polarization binding assay; inhibition, % at 35 µM; 290,000 tested, 0.94% active; Q15056;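 active = 50% or more with normal probe brightness, or confirmed in later tests; about a fifth of its hits are not listed in these tables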;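 also: calls also rest on retests at 20 µM and on dose response follow-up; 0% = protein and probe with vehicle and 100% = probe without protein; strong numbers were not always called active; many hits fall short of the cut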
PABP polyA inh: PABP-poly(A) binding inhibition. PABP-poly(A) RNA binding, fluorescence polarization. inhibition, % at 35 µM. 290,000 tested, 1% active. AID 2014;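 active = 50% or more with normal probe brightness, or confirmed in later tests; about a fifth of its hits are not listed in these tables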;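 also: calls also rest on retests at 20 µM and on dose response follow-up; controls were probe without protein and protein plus probe with vehicle; some compounds called inactive have numbers as strong as hits; many hits fall short of the cut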
Target sequence (P11940 whole entry, looked up): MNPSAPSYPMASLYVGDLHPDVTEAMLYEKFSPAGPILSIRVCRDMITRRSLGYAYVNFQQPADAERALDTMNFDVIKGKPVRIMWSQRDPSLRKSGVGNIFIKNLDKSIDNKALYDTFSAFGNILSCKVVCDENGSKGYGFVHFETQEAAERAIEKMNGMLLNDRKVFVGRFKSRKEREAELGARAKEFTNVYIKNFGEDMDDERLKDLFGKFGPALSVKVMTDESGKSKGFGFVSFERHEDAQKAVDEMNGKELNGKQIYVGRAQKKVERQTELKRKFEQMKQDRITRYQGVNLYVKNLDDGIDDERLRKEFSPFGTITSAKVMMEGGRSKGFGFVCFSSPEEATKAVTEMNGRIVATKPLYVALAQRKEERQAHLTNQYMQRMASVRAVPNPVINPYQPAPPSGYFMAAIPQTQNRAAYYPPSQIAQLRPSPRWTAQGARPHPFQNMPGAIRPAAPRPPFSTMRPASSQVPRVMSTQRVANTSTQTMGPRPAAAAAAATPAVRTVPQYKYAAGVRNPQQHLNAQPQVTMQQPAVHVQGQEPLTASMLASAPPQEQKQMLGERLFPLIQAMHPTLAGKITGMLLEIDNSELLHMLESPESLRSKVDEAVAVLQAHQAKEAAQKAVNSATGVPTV
HIV Env fusion: inhibitors of HIV Env-mediated cell fusion | HeLa-JRFL Env/CEM21 cell fusion, luciferase | 360,000 tested, 1.1% active | inhibition, % at 12.3 µM;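 active = mean replicate inhibition score of at least 50 and every replicate individually at or above 50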;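 also: 0% = plate neutral controls and 100% = maraviroc near 300 nM; one replicate is shown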
UUG fidelity: yeast start codon fidelity modulation. S. cerevisiae UUG-firefly luciferase reporter, luminescence/redox ratio. AID 602363. 350,000 tested, 0.13% active. activity score, % at 18.7 µM;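 active = replicate mean at a twofold rise or more, about +100% in these data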;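 also: firefly luciferase made from a UUG start codon reports start codon fidelity; reporter light over untreated wells divided by growth signal over untreated wells; some hits fall short of that in this replicate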
CSC inhib: cancer stem cell inhibition. cancer stem cell-like cells viability, luminescence. inhibition, % at 7.5 µM. 300,000 tested, 1.1% active. AID 2717;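 active = mean at 75% or more and at least half the replicates too; tested in HMLE shEcad cells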;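 also: 0% = median of negative and 100% = median of positive control wells; the first replicate is given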
eIF4H FP inh retest: second read-out of eIF4H FP inh, no call of its own (marks repeat the call); inhibition, %; compound at 20 µM; confirmation average;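 mean of two retest wells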
PABP polyA inh retest: recorded beside PABP polyA inh, whose call it bears; inhibition, %; compound at 20 µM; confirmation repeats;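 mean of two retest wells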
MT1-MMP act inh RFP: second read-out of MT1-MMP act inh, no call of its own (marks repeat the call); RFP signal change, %; measured here: RFP expression control read;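 0 = vehicle wells; hits needed this value within 50% of zero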
Active calls of the source: *; i = inactive; x = not tested or not shown; & = joins results of further samples.

SMILES | Rce1 inh | MT1-MMP act inh | MT1-MMP act inh RFP | eIF4H FP inh | PABP polyA inh | HIV Env fusion | UUG fidelity | CSC inhib | others
O=C1N2CN(C(c3ccccc3)c3ccccc3)CN=C2SC1(CO)CO | i | 1 | 4 | -3 | -21 | 20 | -17 | -3
Cc1ccc(S(=O)(=O)Oc2ccc(/C=N/N=C3/NC(=O)C(CC(=O)O)S3)cc2)cc1 (configuration not stated) | x | 2 | 3 | 1 | 1 | 20 | x | x
Cc1cc(Nc2ccccc2)nc(N)n1 | i | -1 | 0 | -16 | -4 | x | x | -7
COc1cccc(NC(=O)CCNC(=O)C2CCN(S(=O)(=O)c3ccc(F)cc3)CC2)c1 | i | 2 | 4 | x | x | 6 | -2 | -20
COc1ccc(CCN(Cc2cccs2)S(=O)(=O)c2ccc(-n3cnnn3)cc2)cc1OC | x | 5 | -14 | x | x | 86* | -12 | 14
Cc1cccc(NC(=S)NC(=O)c2cc(-c3ccccc3)nc3ccccc23)c1 | i | -9 | -7 | -1 | -1 | -28 | -16 | x
O=C1NC[C@H](Cc2ccccc2)N(CC2CCCCC2)C1=O | i | -1 | 3 | -14 | 10 | 12 | 14 | -7
Cc1ccccc1NC(=O)c1nn(-c2ccc(F)c(F)c2)ccc1=O | i | -3 | -5 | -11 | -10 | -8 | x | -6
O=S(=O)(CCn1cccc1)CCn1cccc1 | i | -3 | 1 | -3 | -3 | -37 | 1 | -9
Cn1c(CN2CCN(CC#N)CC2)c(C#N)c2ccccc21 | i | x | x | 0 | 2 | x | -24 | -7
CCCC(=O)Nc1ccccc1NC(=O)C1CCCCC1 | i | -6 | -5 | -6 | -9 | 35 | -6 | -1
Cc1ccc(S(=O)(=O)/N=C2/NC(=O)/C(=C\c3ccco3)S2)cc1 | x | -14 | 4 | 66* | 54* | x | -12 | -2 | eIF4H FP inh retest=84*;PABP polyA inh retest=90*
O=C(Cn1nnc2ccccc21)OCC(=O)c1ccc(Cl)cc1 | i | x | x | -8 | 2 | -3 | x | 1
CCOc1cc(/C=N/N=C2/NC(=O)C(CC(=O)O)S2)ccc1OCc1ccccc1Cl (configuration not stated) | i | 1 | 4 | 23 | 4 | -118 | x | 13
Cc1ccc2c(c1)c1nnc(SCC(=O)N3CCCc4ccccc43)nc1n2CC(=O)O | x | -2 | 1 | 12 | 24 | 7 | x | 10
Cc1ccc(NC(=O)N2CCCCCC2)cc1C | i | 1 | 3 | -6 | 0 | -37 | -7 | 4
CC(=O)Nc1cccc(NC(=O)c2cccc(OCc3ccccc3)c2)c1 | i | -1 | -6 | 1 | 8 | 14 | 4 | 17
CCOC(=O)CCc1c(C)c(C#N)c2nc3ccccc3n2c1-n1ccnc1 | i | 2 | 3 | -2 | 2 | x | -17 | 1
O=C(O)CCS(=O)(=O)c1nc(-c2cccs2)cc(C(F)(F)F)n1 | i | -3 | -2 | 0 | 4 | x | -20 | 3
CCOC(=O)CNC(=S)N(CCCN1CCCC1)Cc1cccs1 | i | 0 | 2 | -6 | -9 | 8 | x | -5
O=C(Nc1ccon1)Nc1cc(Cl)ccc1Cl | i | 0 | 0 | -2 | -5 | -20 | -11 | -3
CCN1C(=O)CS/C1=N\c1nccs1 | i | -2 | -1 | 6 | -5 | x | -13 | -12
CCn1c(SCC(=O)c2ccc(NC(C)=O)c(OC)c2)nnc1-c1ccc(NS(C)(=O)=O)cc1 | i | -3 | 0 | -4 | -11 | x | x | -9
CCCCNC(=O)[C@@H]1CSC2c3ccc(OC)c(OC)c3C(=O)N21 (some centres not stated) | i | 2 | -4 | -3 | -4 | -7 | -23 | -5
CCN(CC)S(=O)(=O)c1ccc(OC)c(NC(=S)Nc2ccc(C)c(C)c2)c1 | i | -1 | -2 | -5 | 4 | x | x | -21
N#C/C(=C\Nc1ccc(Cl)cn1)S(=O)(=O)c1ccccn1 | i | 3 | 2 | -15 | 3 | -11 | x | -2
N#CCSc1nnc(CNc2cccc(Cl)c2)o1 | i | 0 | -2 | -2 | 1 | -77 | -4 | -5
O=C(NCc1ccccc1)c1ccc(CN2CCC(Cc3ccccc3)CC2)cc1 | i | 0 | -4 | -5 | -2 | 8 | -4 | 15
O=C(Cn1ncc2c3ccccc3n(Cc3ccccc3)c2c1=O)NCCCN1CCCC1 | i | -1 | 2 | 0 | -11 | -7 | -17 | 3
CS(=O)(=O)c1ccc(C(=O)Nc2ccc(S(=O)(=O)N3CCCCC3)cc2)cc1 | i | -3 | -9 | x | x | 3 | x | 11

Two compounds drawn at random from those above:
SMILES | Rce1 inh | MT1-MMP act inh | MT1-MMP act inh RFP | eIF4H FP inh | PABP polyA inh | HIV Env fusion | UUG fidelity | CSC inhib | others
CCOC(=O)CNC(=S)N(CCCN1CCCC1)Cc1cccs1 | i | 0 | 2 | -6 | -9 | 8 | x | -5
CCn1c(SCC(=O)c2ccc(NC(C)=O)c(OC)c2)nnc1-c1ccc(NS(C)(=O)=O)cc1 | i | -3 | 0 | -4 | -11 | x | x | -9

Carrying on:
SMILES | Rce1 inh | MT1-MMP act inh | MT1-MMP act inh RFP | eIF4H FP inh | PABP polyA inh | HIV Env fusion | UUG fidelity | CSC inhib | others
CCCCC(NC(=O)c1ccc(C#N)cc1)C(=O)NCCC (configuration not stated) | x | -2 | -1 | x | x | -14 | -21 | -11
O=C(Nc1nc2ccccc2c(=O)s1)c1ccco1 | i | -1 | 2 | -6 | -3 | -100 | -15 | -5
Cc1ccc(Cc2nc(-c3cccnc3)no2)cc1 | i | 0 | 1 | 7 | 29 | 6 | -14 | -13
COc1cc(-c2ccc3oc(-c4ccsc4)c(C#CC4(O)CCCCC4)c3c2)cc(OC)c1OC | i | 2 | -1 | x | x | 25 | -16 | 73
CCCn1c(=O)c2c(nc3n2CCCN3CCc2ccc(OC)c(OC)c2)n(C)c1=O | i | 1 | -2 | -3 | -1 | 12 | 19 | -3
O=[N+]([O-])c1cccc(COc2ccc(CN3CCCC3)cc2)c1 | x | 2 | -3 | x | x | 1 | -12 | x
CCCCCN1C=CC(=C2C(=O)c3ccccc3C2=O)C=C1 | i | -4 | 1 | 88* | 1.7* | 72* | x | 55 | eIF4H FP inh retest=98*;PABP polyA inh retest=80*
O=C(CCNS(=O)(=O)c1cccc2nonc12)NCc1cccs1 | i | 7 | 5 | 0 | 7 | -35 | 4 | -8
O=S(=O)(CCc1nc2ccccc2o1)c1ccc2ccccc2c1 | i | 2 | 3 | -14 | -2 | x | -17 | -9
COC(=O)c1ccc(C(=O)NN)cc1 | i | 2 | 4 | 4 | 10 | 2 | -1 | -7
COC(=O)c1c(-c2ccc(C)cc2)csc1NC(=O)c1c(-c2ccccc2)noc1C | i | x | x | 8 | -6 | 11 | x | 32
Cc1ccccc1OCC(=O)OCC(=O)N1CCc2ccccc21 | x | -1 | 5 | x | x | -33 | 1 | x
O=C(Nc1cccc(S(=O)(=O)N2CCOCC2)c1)[C@@H]1CCCN1S(=O)(=O)c1ccc(Cl)cc1 | i | -2 | -3 | 6 | 1 | 62* | x | -4
Cn1c(=O)c2c(SCC(=O)NCC3CCCO3)nc(CC(C)(C)C)nc2n(C)c1=O (configuration not stated) | i | -2 | 0 | 4 | 4 | 2 | 11 | -14
Nc1c(C(=O)NCc2ccc3c(c2)OCO3)nnn1Cc1cccc(F)c1 | i | 1 | -4 | -3 | 3 | 12 | -18 | -7
COc1ccc(CC(=O)NN2C(=O)c3ccccc3C2=O)cc1 | i | -8 | -2 | 11 | 6 | 2 | 42 | 10
O=C(Cc1csc(-c2ccccc2)n1)NCc1ccccc1F | i | x | x | -3 | -2 | 23 | x | 11
O=C(c1ccco1)N1CCN(S(=O)(=O)Cc2ccccc2Cl)CC1 | i | 8 | 8 | -6 | 44 | 8 | -7 | 25
CC(C)C[C@H](NC(=O)C1CC(=O)N(c2ccc(F)cc2)C1)C(=O)N1CCCCC1 (some centres not stated) | i | -2 | 2 | -13 | 2 | -11 | -6 | 2
COc1ccc(NC(=O)c2cc(-c3cccs3)on2)c(OC)c1 | i | -1 | -1 | 4 | 1 | 15 | -22 | 4
CCCCn1c(N)c(N(CC(C)C)C(=O)CCS(=O)(=O)c2ccc(C)cc2)c(=O)[nH]c1=O | i | 0 | 2 | x | x | -8 | 4 | -1
CCN(CC(=O)Nc1ccccc1C(F)(F)F)C(=O)Cc1sc(C)nc1-c1ccc(F)cc1 | i | 2 | 0 | x | x | 0 | x | 2
CN1CCSc2ccc(C(=O)NCc3ccccc3F)cc21 | i | 5 | -3 | -3 | -5 | -26 | -10 | -3
CCc1nnc(NC(=O)CN2CCN(S(C)(=O)=O)CC2)s1 | i | 0 | 5 | 3 | -1 | 10 | -12 | -14
Fc1ccc(-c2nnc(-c3ccc(Cl)cc3)o2)cc1 | i | 26 | 5 | 1 | -1 | -381 | -1 | 4
O=C(Cn1cnc2c(NCc3ccccc3)ncnc21)NCc1ccc2[nH]ccc2c1 | x | 2 | 5 | x | x | 13 | -7 | x
Cc1c(NC(=S)N/C(=N/S(=O)(=O)c2ccc(Cl)cc2)c2ccccc2)c(=O)n(-c2ccccc2)n1C | i | 2 | 1 | -4 | 7 | -16 | -24 | -9
Cc1cccc(Cc2c(C)nc3c(C(=O)NCc4ccco4)cnn3c2C)c1 | i | -5 | -15 | -1 | -7 | 49 | 6 | -3
CCN(C(=O)COC(=O)CCc1ccccc1OC)c1c(N)n(Cc2ccccc2)c(=O)[nH]c1=O | i | -2 | 3 | x | x | 2 | -4 | -7
CCNC(=O)c1ccc(=O)n(Cc2ccc(Cl)cc2Cl)c1 | i | 2 | -1 | x | x | 12 | x | 2
COc1ccc(OC)c(NC(=O)CC2SC(=Nc3ccc(F)cc3)N(CCC3=CCCCC3)C2=O)c1 (configuration not stated) | i | -6 | -10 | -5 | -12 | -3 | x | 26
CCSc1nc2sc3c(c2c(=O)[nH]1)CC(C)(C)OC3 | i | 1 | -4 | -4 | -4 | -67 | -9 | -2
CC(C)NC(=O)N(C)C[C@H]1Oc2c(NC(=O)Nc3ccccc3)cccc2C(=O)N([C@H](C)CO)C[C@@H]1C | x | 1 | 0 | x | x | 16 | 13&7 | x
CCOC(=O)NC(NCCc1ccccc1)(C(F)(F)F)C(F)(F)F | i | 6 | 6 | 1 | -4 | -13 | x | -13
COc1cc(C(=O)OCC(=O)NCC2CCCO2)cc(OC)c1OC (configuration not stated) | x | 0 | 2 | x | x | x | -10 | -8
CC(C)N(Cc1cnn(C)c1)Cc1nc(COc2ccccc2)no1 | i | 8 | 0 | 2 | -15 | -7 | -1 | -14
COCCNC(=O)c1cc(S(=O)(=O)N(C)C2CCCCC2)ccc1Cl | x | 2 | 5 | x | x | 57* | -7 | x
C1=C(CCNCC2CCCCC2)CCCC1 | i | -4 | 1 | -5 | -7 | -39 | -9 | 10
C[C@H]1CN([C@@H](C)CO)C(=O)CCCn2cc(nn2)CO[C@@H]1CN(C)S(=O)(=O)c1ccc(C#N)cc1 | x | -1 | 3 | x | x | -22 | -13&4 | x
Cc1sc(Cc2nc(O)cs2)nc1-c1ccccc1 | i | -2 | 2 | 32 | -6 | -34 | -26 | -11
COC(=O)C1=C(C)NC(=S)NC1/C=C/c1ccccc1 (configuration not stated) | i | -2 | 0 | -10 | 0 | 15 | -18 | 3
CCn1c(SCC(=O)NCC2CCCO2)nc2cc(S(=O)(=O)N3CCCCC3)ccc21 (configuration not stated) | i | -2 | -2 | -8 | 3 | -38 | -3 | 4
Cc1cccc(N2CCN(C(=O)c3c(-c4ccccc4)noc3C)CC2)c1C | x | -2 | -14 | -4 | 4 | x | -3 | 45
CN(CC(=O)Nc1ccc(OC(F)(F)F)cc1)C(=O)Cc1c(Cl)cccc1Cl | i | -1 | -1 | -2 | -1 | 10 | 6 | 18
CCc1ccc(/C=N/NC(=O)c2ccc(OC3CCCC3)cc2)s1 | i | -1 | -3 | -3 | -10 | x | -18 | 32
